# eIF4H inh – inhibitors of RNA binding by human eIF4H | AID 2012 | inhibition, % at 35 µM | eIF4H fluorescence polarization binding assay | 0.94% of 290,000 active | Q15056;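 active = 50% or more with normal probe brightness, or confirmed in later tests; inconclusive = above 50% with abnormal brightness, or retests that disagree; inactive = below 50% or failed in later tests; about a fifth of its hits are not listed in these tables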;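 also: calls also rest on retests at 20 µM and on dose response follow-up; 0% = protein and probe with vehicle and 100% = probe without protein; strong numbers were not always called active; many hits fall short of the cut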
# CSC inhib – cancer stem cell inhibition | cancer stem cell-like cells viability, luminescence | inhibition, % at 7.5 µM | 1.1% of 300,000 active | AID 2717;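 active = mean at 75% or more and at least half the replicates too; inconclusive = mean and replicates disagree; tested in HMLE shEcad cells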;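 also: 0% = median of negative and 100% = median of positive control wells; the first replicate is given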
# MT1-MMP act inh – inhibitors of human MT1-MMP activation. 0.061% of 360,000 active. P50281. AID 651647. HT1080 RFP-PRO-GFP cells, GFP/RFP ratio fluorescence, overnight; percent of plate control window, DMSO zero. GFP/RFP ratio change, % at 20 µM;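 active = GFP/RFP ratio change of at least 30% with cell ATP level not reduced by more than half and red fluorescence within 50% of control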; also: strong numbers were not always called active
#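 Material: RFP-PRO-GFP reporter HT1080 cells. Dosing: single-point 20 µM compound, 1% DMSO. Controls: DMSO and RFP-L50D-GFP cell wells. Timing: cells overnight before dosing, compound overnight, 37 °C, 5% CO2. Measure: GFP/RFP fluorescence ratio.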
# Yeast UUG start – modulators of start codon recognition fidelity in yeast | S. cerevisiae UUG-firefly luciferase reporter, luminescence/redox ratio | activity score, % at 18.7 µM | 0.13% of 350,000 active;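 active = replicate mean at a twofold rise or more, about +100% in these data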;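 also: firefly luciferase made from a UUG start codon reports start codon fidelity; reporter light over untreated wells divided by growth signal over untreated wells; some hits fall short of that in this replicate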
# Rce1 inh – yeast Ras-converting enzyme inhibition; Q03530; yeast membranes, quenched prenylated peptide cleavage fluorescence; calls only; 0.27% of 290,000 active; AID 2563;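 active = fall in fluorescence gain of 50% or more versus controls, with final raw signal at or below 3038400; inconclusive = same 50% fall but final raw signal above 3038400; inactive = fall in fluorescence gain under 50%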;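 also: plate controls were neutral control wells for no effect and wells lacking membranes for full effect; tested at 10 µM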
# PABP polyA inh – PABP-poly(A) binding inhibition | P11940 | PABP-poly(A) RNA binding, fluorescence polarization | inhibition, % at 35 µM | 1% of 290,000 active | AID 2014;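 active = 50% or more with normal probe brightness, or confirmed in later tests; inconclusive = above 50% with abnormal brightness, or retests that disagree; inactive = below 50% or failed in later tests; about a fifth of its hits are not listed in these tables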;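 also: calls also rest on retests at 20 µM and on dose response follow-up; controls were probe without protein and protein plus probe with vehicle; some compounds called inactive have numbers as strong as hits; many hits fall short of the cut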
# Target sequence (P11940 whole entry, looked up): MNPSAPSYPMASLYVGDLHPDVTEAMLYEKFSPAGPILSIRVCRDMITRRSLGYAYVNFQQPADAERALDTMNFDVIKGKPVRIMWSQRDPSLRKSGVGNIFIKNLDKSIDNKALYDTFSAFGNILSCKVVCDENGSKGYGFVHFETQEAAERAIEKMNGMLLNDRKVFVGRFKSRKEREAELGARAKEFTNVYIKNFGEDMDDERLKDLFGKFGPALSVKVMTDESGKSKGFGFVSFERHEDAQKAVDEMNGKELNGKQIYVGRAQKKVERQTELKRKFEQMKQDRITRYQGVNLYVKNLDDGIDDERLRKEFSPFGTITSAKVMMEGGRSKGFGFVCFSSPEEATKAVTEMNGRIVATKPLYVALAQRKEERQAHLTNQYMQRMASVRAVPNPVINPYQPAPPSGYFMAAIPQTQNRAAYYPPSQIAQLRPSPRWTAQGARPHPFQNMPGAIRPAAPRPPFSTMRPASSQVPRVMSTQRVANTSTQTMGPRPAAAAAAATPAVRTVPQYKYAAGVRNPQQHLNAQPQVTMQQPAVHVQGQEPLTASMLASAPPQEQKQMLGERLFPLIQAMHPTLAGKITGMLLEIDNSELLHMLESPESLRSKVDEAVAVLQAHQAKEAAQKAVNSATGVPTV
# Env fusion inh – HIV envelope-mediated fusion inhibition; 1.1% of 360,000 active; inhibition, % at 12.3 µM; HeLa-JRFL Env/CEM21 cell fusion, luciferase;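 active = mean replicate inhibition score of at least 50 and every replicate individually at or above 50; inconclusive = only one of the two criteria met; inactive = mean below 50 and not all replicates reaching 50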;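 also: 0% = plate neutral controls and 100% = maraviroc near 300 nM; one replicate is shown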
# eIF4H inh retest – second read-out of eIF4H inh, no call of its own (marks repeat the call); inhibition, %; compound at 20 µM; confirmation average;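 mean of two retest wells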
# PABP polyA inh retest – also measured in PABP polyA inh; calls as there; inhibition, %; compound at 20 µM; confirmation repeats;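 mean of two retest wells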
# MT1-MMP act inh RFP – further read-out of MT1-MMP act inh, marked with its call; RFP signal change, %; measured here: RFP expression control read;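 0 = vehicle wells; hits needed this value within 50% of zero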
# * marks the source's active call; other numbers are inactive results; i = inactive; ? = inconclusive; . = no result given.
SMILES,eIF4H inh,CSC inhib,MT1-MMP act inh,MT1-MMP act inh RFP,Yeast UUG start,Rce1 inh,PABP polyA inh,Env fusion inh,others
COc1ccc2oc(C(=O)OCC(=O)N3CCC(C)CC3)c(C)c2c1,-14.0,3.0,5.8,0.1,8.1,i,4.1,17.3,
COc1ccc(S(=O)(=O)N(C)C[C@H]2Oc3ccc(NC(=O)Nc4ccc5c(c4)OCO5)cc3CC(=O)N([C@@H](C)CO)C[C@@H]2C)cc1,.,.,3.5,4.3,-18.0,.,.,12.5,
Cc1ccc(S(=O)(=O)N2C(=O)C(c3ccccc3)SC2=Nc2ccccc2)cc1 (stereo not drawn),-8.6,-11.6,4.4,0.8,-4.0,i,-1.4,.,
Cc1cc(NC(=O)c2cccc(S(=O)(=O)N3CCCCC3)c2)no1,0.8,-3.4,-0.9,-1.8,-13.2,i,1.9,5.9,
CN(c1ccccc1C(=O)NCc1ccco1)S(C)(=O)=O,55.0*,2.3,1.6,3.9,.,i,32.5*,-37.3,eIF4H inh retest=95.3*;PABP polyA inh retest=98.6*
CCOCCCNC(=O)c1ccc2c(c1)N(CC)C(=O)c1ccccc1S2=O (stereo not drawn),1.3,-3.2,0.7,4.5,-6.1,i,-11.7,7.3,
CCCCNC(=O)N1CCCC(C(=O)c2cc(C)c(OC)c(C)c2)C1 (stereo not drawn),4.6,4.9,-0.7,-1.9,0.4,i,0.6,-1.7,
CCN1CCn2c3c(c4cc(C)ccc42)CCCC31 (stereo not drawn),1.2,-3.0,-2.8,0.2,-10.1,i,-10.3,.,
CCCCNC(=O)CSc1nnc(-c2ccc(S(=O)(=O)N3CCCC3)cc2)n1C,-6.8,8.9,-4.5,-2.0,-16.0,i,4.7,-13.8,
O=C(O)C(Cc1ccc(Cl)cc1)NS(=O)(=O)c1ccc(Cl)cc1 (stereo not drawn),-0.5,.,-0.5,3.8,-5.5,i,5.1,15.1,
COc1ccc(CNC(=O)C(C)N(Cc2ccccc2OC)C(=O)c2snc(C(N)=O)c2N)cc1 (stereo not drawn),-14.7,-5.6,1.3,2.4,-20.8,i,3.1,6.6,
O=c1c(=Nc2ccccc2O)c(=O)c2ccccc12,8.1,11.2,1.2,4.7,.,i,-5.0,-7.6,
c1csc(-c2nn3c(Cn4nnc5ccccc54)nnc3s2)c1,-4.3,-8.0,-1.2,1.5,-9.1,i,-8.5,-8.5,
Cc1cc(Nc2ccc(F)cc2C)n2ncnc2n1,1.4,-8.2,6.4,5.2,-14.9,i,3.8,12.3,
CN(C)Cc1c(C(=O)Nc2ccccc2)[nH]c2ccccc12,.,11.9,-2.6,-1.1,-10.8,i,.,-15.6,
COc1ccc(NC(=O)CSc2nnc(C3CC3)n2C)cc1S(=O)(=O)N1CCCCC1,.,-3.5,5.8,-1.0,1.4,.,.,.,
O=c1cc(CO)oc(CN2CCCC2)c1O,13.8,4.1,-5.6,-2.5,-17.3,i,5.4,.,
CCOCCCNC(=O)CN1C(=O)NC(Cc2c[nH]c3ccccc23)C1=O (stereo not drawn),-8.7,-7.1,3.1,6.3,-12.3,i,6.2,12.8,
CCCN1CC(=O)N2C(c3ccccc3)c3[nH]c4ccccc4c3C[C@H]2C1=O (stereo partly drawn),4.9,3.4,-4.5,1.0,2.1,i,5.8,-4.6,
CCCCCC(=O)Nc1ccc(S(=O)(=O)Nc2nccnc2OC)cc1,-6.6,-0.7,-3.3,5.6,-9.2,i,8.7,.,

# Of the compounds above, these contain a furan ring, fused or not.
SMILES,eIF4H inh,CSC inhib,MT1-MMP act inh,MT1-MMP act inh RFP,Yeast UUG start,Rce1 inh,PABP polyA inh,Env fusion inh,others
COc1ccc2oc(C(=O)OCC(=O)N3CCC(C)CC3)c(C)c2c1,-14.0,3.0,5.8,0.1,8.1,i,4.1,17.3,
CN(c1ccccc1C(=O)NCc1ccco1)S(C)(=O)=O,55.0*,2.3,1.6,3.9,.,i,32.5*,-37.3,eIF4H inh retest=95.3*;PABP polyA inh retest=98.6*

# Following part
SMILES,eIF4H inh,CSC inhib,MT1-MMP act inh,MT1-MMP act inh RFP,Yeast UUG start,Rce1 inh,PABP polyA inh,Env fusion inh,others
CCOc1ccc2c(c1)[N+](C)(C)C(C)(C)C=C2C,-8.1,0.3,-0.4,-0.1,.,.,-15.6,-0.2,
CN1CCC(=NNC(=O)C(=O)Nc2cccc(Br)c2)CC1,-1.2,0.5,-0.4,4.9,.,i,6.7,11.4,
COc1ccc(OC)c(NC(=O)C(CCSC)NS(=O)(=O)c2cccs2)c1 (stereo not drawn),2.7,-0.4,2.5,5.6,-2.0,.,10.0,-2.5,
COc1cc(CNc2ccc3[nH]c(=O)[nH]c3c2)cc(Cl)c1OCC(=O)NC(C)(C)C,30.1,-5.6,-10.3,-2.2,-10.2,i,34.1,.,
COc1cccc(NC(=O)CCCNC(=O)Cn2cnc3sc(C)c(C)c3c2=O)c1,-9.4,4.4,1.2,0.6,-5.2,i,0.5,-7.6,
Nn1cnnc1N/N=C/c1cccc(Cl)c1Cl,-13.8,-6.3,-10.5,-0.4,2.8,i,-19.2,9.3,
O=C(CSc1nc(-c2ccc(F)cc2)cs1)N1CCN(C(=O)c2ccco2)CC1,-11.8,-4.5,-0.5,-5.5,-5.8,i,-3.2,-75.2,
CCCCNC(=O)C1(O)c2ccccc2NC(=O)N1c1ccc(Cl)cc1 (stereo not drawn),-2.3,-5.8,3.7,0.7,-8.8,i,8.8,-8.0,
CN1C/C(=C/c2ccsc2)C(=O)/C(=C/c2ccsc2)C1,6.6,9.9,-3.0,-6.7,-6.2,i,-4.2,-38.7,
O=C(O)c1ccc(COc2ccc([N+](=O)[O-])cc2)o1,-6.4,-12.6,1.1,1.2,.,i,-4.0,5.6,
CC(Sc1nnc(CNC(=O)c2ccccc2F)n1C)C(=O)Nc1nccs1 (stereo not drawn),3.3,-16.5,-1.5,-0.2,-6.6,i,9.6,4.0,
Cc1ccc(S(=O)(=O)N2CCN(C(=O)C3CCN(C(=O)c4ccccc4C)CC3)CC2)cc1C,1.3,6.4,0.6,-6.0,.,i,-4.4,-2.1,
C/C(=N\NC(=O)C(O)(c1ccccc1)c1ccccc1)c1ccc(C)o1,-1.2,-26.6,2.5,4.7,-13.9,i,3.4,1.0,
O=C(c1ccc2c(c1)OCO2)N1CCN(c2ccc(Cl)cc2)CC1,-6.2,-12.7,2.7,-1.0,.,i,-5.7,.,
Cc1ccc(C)c(C(C)NC(=O)c2ccccc2Br)c1 (stereo not drawn),-4.2,.,-8.8,-7.5,.,i,1.7,3.6,
Cc1ccccc1NC(=S)N1CCN(c2ccccc2)CC1,-2.4,-27.2,-4.5,-0.4,-14.0,i,-3.3,9.8,
CC(=O)c1sc(NC(=O)c2ccc(Br)o2)nc1C,-1.6,1.1,-0.3,3.8,-4.9,i,4.3,-46.1,
C=C(C)C(=O)Nc1cccc(C2=NOC3(C2)C[C@@H](C(N)=O)N(C(=O)C2(C)CC2)C3)c1 (stereo partly drawn),99.6*,-12.3,1.2,-0.6,0.9,i,69.9*,-5.7,
Cc1cc(Br)ccc1OCC(=O)NNC(=O)c1cnccn1,2.8,7.5,1.3,-1.4,.,i,-5.4,0.6,
COC(=O)c1ccc2nc(NC(=O)C3CCCCC3)sc2c1,-10.6,0.8,6.7,2.2,.,i,-1.0,-6.7,

# Brought forward from above: two compounds; new compounds follow.
SMILES,eIF4H inh,CSC inhib,MT1-MMP act inh,MT1-MMP act inh RFP,Yeast UUG start,Rce1 inh,PABP polyA inh,Env fusion inh,others
Cc1cc(Br)ccc1OCC(=O)NNC(=O)c1cnccn1,2.8,7.5,1.3,-1.4,.,i,-5.4,0.6,
COC(=O)c1ccc2nc(NC(=O)C3CCCCC3)sc2c1,-10.6,0.8,6.7,2.2,.,i,-1.0,-6.7,
COc1cc(/C=N/Nc2cc(C)nc(N)n2)ccc1O,1.1,-10.1,3.8,4.5,-6.8,i,15.7,-28.2,
COc1ccccc1OCCC(=O)OCCN1C(=O)c2ccccc2C1=O,3.5,17.1,7.6,3.1,-9.1,i,4.5,21.6,
CC1(C)CC(=O)C=C(c2cccc3c2oc2ccccc23)C1,.,27.9,-0.2,-7.4,13.7,i,.,72.5*,
Cc1ccccc1OCC(=O)Nc1cc(Cl)ccc1Oc1ccccc1,-0.4,0.4,-7.1,-1.8,.,i,-5.8,?,
Cc1ccc(CC23CN4CCN(CC(C4)C2O)C3)c(C)c1 (stereo not drawn),-6.8,-11.3,-3.4,-1.3,-16.1,.,4.3,-43.7,
COc1cc(/C=C2\C(=N)N3N=C(CC(=O)N4CCOCC4)SC3=NC2=O)cc(OC)c1OC,-8.7,-2.3,-0.8,2.7,-10.8,i,4.3,2.8,
Cn1cccc1CC(=O)N/N=C/C=C/c1ccco1,98.9,-5.2,0.0,2.3,.,i,-5.7,-19.8,eIF4H inh retest=-9.8;PABP polyA inh retest=6.2
O=C(C=Cc1ccc(Cl)s1)c1ccc(Cl)s1,.,.,-0.7,2.4,-14.7,.,.,-0.6,
O=C(C(c1ccccc1)c1ccccc1)N(Cc1ccco1)C1CCS(=O)(=O)C1 (stereo not drawn),21.0,-3.5,-1.2,2.2,.,i,3.4,-12.4,
N=c1oc2ccc3ccccc3c2cc1-c1nnc2n1CCCCC2,0.8,0.4,-0.3,5.0,-12.9,.,1.5,-44.0,
CCCn1c(NC(=O)c2ccc(C)cc2)nc2ccccc21,12.5,24.7,-7.6,-8.9,-13.4,i,2.4,.,
COc1ccc(N2C3=C(CC4=C2CC(C)(C)CC4=O)C(=O)CC(C)(C)C3)cc1,2.4,69.6,-42.9,-14.2,15.5,i,8.7,.,
O=C(OCc1ccccc1)C1=[N+]([O-])OC(C(=O)OCc2ccccc2)C1c1c[nH]c2ccccc12 (stereo not drawn),-11.6,15.5,0.2,3.7,.,.,-2.7,.,
O=C(CNC(=O)C12CC3CC(CC(C3)C1)C2)N1CCN(S(=O)(=O)c2cccs2)CC1,1.2,-9.7,3.4,2.3,-8.7,i,2.8,12.3,
COc1ccc(C2/C=C\CN(C(=O)Nc3ccccc3-c3ccccc3)CC(=O)N2Cc2ccc(F)cc2)cc1 (stereo not drawn),-5.0,15.2,-2.2,-9.0,-12.8,i,4.5,.,
Cc1noc(C)c1C(=O)Nc1ccc(N(C)C)cc1,3.3,-3.7,1.2,2.1,-7.1,i,23.9,-10.8,
CCC(C)n1nccc1NC(=O)C(C)Cl (stereo not drawn),1.1,3.6,1.8,5.2,.,i,10.3,11.3,
CC(=O)Nc1ccc(C(=O)N/N=C(\C)CC(=O)Nc2ccc(OCc3ccccc3)cc2)cc1,-8.7,6.0,-5.0,0.7,-0.8,i,-16.2,-27.0,
Cc1nc(NC(=O)c2ccc(F)cc2)nc2cc3c(cc12)OCO3,-3.4,.,5.7,9.2,-3.4,.,4.5,.,
C[C@@H]1C(NC(=O)c2ccccc2)CC2CC1C2(C)C (stereo partly drawn),12.3,18.6,-2.5,-4.1,-13.9,i,6.8,11.2,
N#Cc1c(-c2ccccc2)nc(-c2ccccc2)nc1N1CCOCC1,5.1,7.6,-9.1,-6.4,-8.7,i,-5.9,.,
COc1ccc2oc(C(=O)OCC(=O)N3C(C)CCCC3C)c(C)c2c1 (stereo not drawn),7.8,4.5,-1.1,-1.6,-5.5,i,2.0,13.3,
CN(CC1COc2ccccc2O1)C(=O)c1ccc(Cl)c(S(=O)(=O)N2CCCCCC2)c1 (stereo not drawn),.,.,-2.1,-6.0,2.0,.,.,12.9,

# Compound activity deposited in PubChem by several laboratories.
